AID504770 – growth inhibition of E. coli YBA685, primary screen, V. cholerae RctB inhibitors | E. coli YBA685 rctB-dependent plasmid, OD600 growth, 3 h; active compounds read low | z-score (no concentration beside the values) | 130,000 compounds, 0.27% hits;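 active = z-score under -2 on both plates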;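 also: wells of about 30 µL received 100 nL stock; score is relative to mean and SD of the test wells; the first replicate is given; strong numbers were not always called active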
Ba CapD inh – Bacillus anthracis CapD inhibitors, primary screen, biochemical, fluorescence intensity; purified CapD enzyme, fluorescence intensity read-out; active compounds read low; some hits fall short of the stated cut; z-score (concentration not given with the values); 140,000 compounds, 0.23% hits; AID 492967, 2010;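 active = z-score under -4 in either of two replicates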;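 also: stock transfer was 100 nL into about 40 µL; score is relative to mean and spread of the plate; one replicate is shown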
The depositor's hits bear a star; . = no result given. Not all compounds are listed; count on the stated rates, not on these rows.

canonical_smiles,Ba CapD inh,AID504770
O=C(NC1CC2CCC1C2)c1ccc(CN2CCOCC2)cc1 (configuration not stated),-0.23,1.3
CCCCNC(=O)NCCSCc1ccco1,-0.14,.
COc1cc(OC)cc(-n2nc(C(=O)N3CCC4(CC3)OCCO4)c3ccccc3c2=O)c1,-0.06,.
CN(CCC#N)C(=O)c1ccc2c(=O)n3c(nc2c1)CCCCC3,0.09,2.1
O=C(c1ccc(S(=O)(=O)N2CCOCC2)cc1)N(Cc1ccccn1)c1nc2ccccc2s1,.,1.1
COc1ccc(CNCC(=O)N2CCC3(CC2)OCCO3)cc1,.,0.3
c1ccc(COn2nnc3ccccc32)c(COn2nnc3ccccc32)c1,0.76,0.2
Cc1c(C(=O)N2CCOCC2)sc2ncnc(N3CCN(c4ccccc4)CC3)c12,-0.39,.
CCOc1ccc2nc(SCC(=O)O)sc2c1,.,0.2
S=C(N/N=C\c1ccco1)Nc1ccccc1,-3.3,1.4
COc1ccc(Nc2cc(C(=O)NCCCN3CCN(C)CC3)c3ccccc3n2)cc1,-0.33,-0.55
CCOC(=O)C1CCN(C(=O)COC(=O)c2ccc(-n3cnnn3)cc2)CC1,.,-0.55
CN(C(=O)c1nc2ncccn2n1)c1ccc(OC(F)(F)F)cc1,0.12,0.65
COc1ccc2c(CC(=O)OCc3cc(Cl)c4c(c3)OCO4)coc2c1,.,-0.4
COc1ccccc1CNS(=O)(=O)c1ccc(Oc2cccc(Cl)c2C#N)cc1,-0.54,.
Cc1cc(OC(=O)N(C)C)nc(-c2cccs2)n1,-0.03,0.15
C=CCSc1nc2sc3c(c2c(=O)n1Cc1ccccc1)CC(C)(C)OC3,0.8,.
Cc1c(C)c(C)c(C(C)OC(C)c2c(C)c(C)c(C)c(C)c2C)c(C)c1C (configuration not stated),-0.01,.
Cc1nc2sc(C(=O)OCC(=O)NCc3ccco3)c(C)c2c(=O)[nH]1,.,-0.35
CCOc1ccc(CNc2nc3ccccc3n2C)cc1OC,-0.18,0.55
C=CCn1c(SCC(=O)NCc2ccccc2Cl)nc2cc(C(=O)NCC3CCCO3)ccc2c1=O (configuration not stated),0.36,.
CN1CCN(CCCNc2nc(-c3ccccc3)no2)CC1,-0.02,-0.6
CCN(C(=O)/C=C/c1cc(OC)c(OC)c(OC)c1)C1CCCCC1,.,-1.1
Cc1cc(C(=O)OCC(=O)N2CCc3ccccc3C2)c(C)o1,-0.94,-0.35
Cc1csc2nc(CSc3nnc(C(C)Oc4ccccc4F)o3)cc(=O)n12 (configuration not stated),.,0.45
CC(C)(C)c1ccc(CSc2n[nH]c(=O)[nH]c2=O)cc1,.,1.1
CCc1ccc(-c2nc(SCC(=O)NC(C)(C#N)C(C)C)n[nH]2)cc1 (configuration not stated),.,-0.1
COc1ccc(-c2csc(C(=O)N3CCOCC3)c2)cc1,-0.48,.
CC(C)(C)C(=O)Nc1ccc2c(c1)N(S(=O)(=O)c1ccc(Cl)cc1)CC2,-0.33,.
Cc1noc(COc2ccccc2OCC(N)=O)n1,0.24,-0.8
COc1ccc2c(CC(=O)NC3CCCCCC3)coc2c1,.,-1
Cc1cc(C)nc(SCC(=O)c2c(N)no[n+]2[O-])n1,-1.3,-1.7
Fc1ccc(-c2[nH]ncc2/C=N\OCc2ccc(Cl)cc2Cl)cc1,0.075,.
CC(C#N)(NC(=O)CSc1nnc(-c2ccc(Br)cc2)n1C1CCCCC1)C1CC1 (configuration not stated),.,-0.6
CCn1c(NC(C)=O)nc2ccccc21,.,-0.3
O=C(Nc1ccccc1)c1ccc(-c2nc(-c3ccccc3)cs2)cc1,0.6,.
O=C(NCCc1ccc(Cl)cc1)C1CCC(=O)N1C1CCCCC1 (configuration not stated),-0.67,-0.7
CC(NC(=O)c1ccccc1)c1nnc(SCc2nc3ccccc3c(=O)[nH]2)n1C (configuration not stated),-0.36,-0.45
COc1ccc(S(=O)(=O)N2Cc3ccccc3CC2C(=O)N2CCCCC2)cc1 (configuration not stated),-0.11,0.05
COc1ccc2c(c1)c(NC(C)=O)c(C(=O)O)n2C,94,0
Cc1ccc(N2CCN(C(=O)OCc3cccc(OCc4ccccc4)c3)CC2)cc1C,0.15,.
Cc1ccc(/C(O)=C2/C(=O)C(=O)N(c3ccc(O)cc3)C2c2ccccc2)cc1 (configuration not stated),-0.85,.
O=C(CCCSC1=NC(c2ccco2)CC(C(F)(F)F)N1)Nc1ccc(Cl)c(Cl)c1 (configuration not stated),0.21,-0.1
Cn1c(N)c(C(=O)CN2CCc3ccccc3C2)c(=O)n(C)c1=O,.,-0.4
COc1ccc(C(=O)N/N=C/c2c[nH]c3cnc(OCc4ccccc4)cc23)cc1OC,4.7,.
CC1(C)Cc2c(sc3nc(SCC(=O)Nc4ccccc4)nc(N)c23)CO1,0.66,0.25
Cc1c(C(=O)NC2CCCCC2)sc2nc(SCc3cccc(Cl)c3)n(CCc3ccccc3)c(=O)c12,-0.01,.
O=[N+]([O-])c1cccc(C2=Nn3cnnc3SC2)c1,-0.34,.
CC(C)S(=O)(=O)/C(C#N)=C/Nc1ccc(Cl)cc1,-0.43,.
C=CCNC(=O)c1cc(-c2ccc(OC)cc2)on1,0.15,-0.2

Arranged by formula weight (lowest first): 5 of the compounds above.
canonical_smiles,Ba CapD inh,AID504770
C=CCNC(=O)c1cc(-c2ccc(OC)cc2)on1,0.15,-0.2
Cc1cc(OC(=O)N(C)C)nc(-c2cccs2)n1,-0.03,0.15
COc1ccccc1CNS(=O)(=O)c1ccc(Oc2cccc(Cl)c2C#N)cc1,-0.54,.
Cc1ccc(N2CCN(C(=O)OCc3cccc(OCc4ccccc4)c3)CC2)cc1C,0.15,.
C=CCn1c(SCC(=O)NCc2ccccc2Cl)nc2cc(C(=O)NCC3CCCO3)ccc2c1=O (configuration not stated),0.36,.

Remaining list, next part:
canonical_smiles,Ba CapD inh,AID504770
COC(=O)c1ccc(N(Cc2ccccc2)S(=O)(=O)c2ccccc2)cc1,-0.09,-0.4
O=S1(=O)N=C(N/N=C/c2ccccc2F)c2ccccc21,-1.6,-0.3
COc1ccc(C(=O)N2CCC2)cc1S(=O)(=O)NCc1ccc(Cl)cc1,.,0.6
COc1cccc(C(=O)N/N=C/c2cccnc2)c1,-0.085,.
CCOC(=O)Cc1csc(NC(=O)CSc2ccccn2)n1,1.5,0.85
CCOC(=O)c1oc2ccccc2c1COC(=O)c1ccc(OCC)c(OC)c1,.,-0.5
Cc1ccc(-c2ccc(OC(F)F)cc2)cc1,.,-0.8
CCOC(=O)c1c(Nc2cccc(Cl)c2Cl)n[nH]c1C,1.1,0.15
CCc1cc(C(=O)Cc2ccc3ccccc3n2)c(O)cc1OC,-0.4,-0.35
CCN1CCN(CCC(=O)Nc2ccc(OC)cc2)CC1,.,-0.95
COc1ccc(CCNc2nc(C)nc3sc(C)c(C)c23)cc1OC,0.34,.
CCOC(=O)CSc1nc(NCCc2ccc(OC)c(OC)c2)c2ccccc2n1,-0.21,.
CCOC(=O)N1CCN(C(=O)CSC2=C(C#N)C(C)(C)C(C#N)C(=O)N2)CC1 (configuration not stated),.,-0.05
CN(CCC(=O)Nc1ccc2c(c1)OCO2)Cc1ccccc1,-0.15,-0.95
N#CC1=C(SCC(=O)Nc2ccc(Br)cc2)NC(=O)CC1c1ccccc1 (configuration not stated),0.33,0.05
CCC(Sc1nc2ccncc2[nH]1)C(=O)Nc1ccccc1F (configuration not stated),-0.78,1.6
COc1cccc(C2C(N3C(=O)c4ccccc4C3=O)C(=O)N2c2ccc(C)c(F)c2)c1 (configuration not stated),-0.43,.
CCOc1ccc(-n2ccnc2SCC(=O)NCCc2ccccc2)cc1,-0.23,-0.75
OCc1nc2ccccc2n1CCOc1cccc(Cl)c1,-0.99,-0.65
Cc1ccc(NC(=O)c2ccco2)cc1Cl,0.18,-0.05
Cc1cccc(N2CCN(C(=O)OCCN3CCN(Cc4cc5ccccc5o4)CC3)CC2)c1,0.15,.
c1ccc(Sc2nc3ccccc3nc2Sc2ccccc2)cc1,0.55,.
COc1ccccc1CC(=O)NC1CCCC1,0.27,-0.6
CCN1/C(=C2\C(=O)N(C)C(=S)N2c2ccccc2)C=Cc2ccccc21,-0.34,0.05
Cc1cc(C(=O)CSc2nc3ccccc3n2-c2ccccc2)c(C)n1-c1nccs1,.,1.2
COc1ccc2oc3c(c2c1)NC(=O)CN=C3c1ccccc1,-0.21,.
O=S(=O)(c1ccc(C(F)(F)F)cn1)c1cccs1,-0.29,-0.45
CS(=O)(=O)N1CCCc2cc(C(=O)N3CCOCC3)ccc21,-0.35,-0.15
c1ccc2[nH]c(NC3=NCCC3)nc2c1,.,-0.7
O=C1/C(=C\c2ccc(N3CCCC3)cc2)N2CCC1CC2,.,0.85
CC(=O)N1CCN2C(=O)C1CCCC(=O)c1cc(C3CCCCC3)ccc12 (configuration not stated),1,-0.05
COCCNc1c(-c2ccc(OC)c(OC)c2)nc2ccc(Cl)cn12,.,-0.75
CN(C(=O)COC(=O)C1(c2ccccc2F)CCCC1)c1ccccc1,-0.65,1.1
Cc1cc(C(=O)N2CCN(C3c4ccccc4-c4ccccc43)CC2)no1,-0.77,-0.6
O=C(O)CSCc1cn2ccccc2n1,5.6,-2.5
CCCOc1nnc(-c2ccc(C)c(S(=O)(=O)N(C)C)c2)c2ccccc12,0.55,1.1
CSc1ncc(C(=O)NC(C)C)c(-c2ccccc2)n1,-1.7,0.55
CC(=O)Nc1cc(C(C)C)c(C(C)C)cc1C(C)C,0.33,-0.4
COc1ccc(C(=O)Oc2ccc(/C=c3/sc4nc5ccccc5n4c3=O)cc2)cc1,-0.37,.
COC(=O)C1=C(C(=O)OC)SC(=C2C(=S)C(C)(C)N(C(=O)C(C)C)c3cc(C)c(C)cc32)S1,0.37,.
CC1Cc2ccccc2N1C(=O)c1cc2n(n1)C(C(F)(F)F)CC(c1ccco1)N2 (configuration not stated),.,2
CC1(C)CC(=O)C=C(Nc2ccc(C(=O)O)cc2)C1,-0.26,-0.5
O=C(/C=C/c1ccc(Cl)cc1)OCC(=O)N1CCCCC1,-0.55,-0.4
COc1cc(/C=C/C(=O)C(C)(C)O)cc(OC)c1OC,-1.2,1.1
COc1cc(/C=C2\SC(=S)NC2=O)ccc1OCc1cccc2ccccc12,-0.3,0.7
NS(=O)(=O)c1ccc(CCNC(=O)CSc2nc(Nc3ccc(F)cc3)c3ccccc3n2)cc1,-0.04,.
Cc1ccccc1N1CC(O)(c2ccc(F)cc2)[N+]2=C1SCCC2 (configuration not stated),0.12,.
CCc1ccc(-c2c3c(c(-c4ccccc4)n2-c2ccccc2)C(=O)c2ccccc2C3=O)cc1,-0.29,.
Cc1csc(=O)n1CCC(=O)OCc1cc(=O)n2cc(Br)ccc2n1,.,1.4
COc1ccc(-n2nnnc2C2(Nc3cccc(Cl)c3)CCCCC2)cc1,-0.02,.

Additional compounds:
canonical_smiles,Ba CapD inh,AID504770
CN1C(=O)S/C(=C\c2ccc(I)cc2)C1=O,-0.23,0.5
CCCCc1nc2ccccc2c(N)c1CC (tested in a mixture with another compound),8.1,-1.1
COc1ccccc1C1CCN(c2ncccc2[N+](=O)[O-])CC1,-1.4,.
Cc1nc(-c2c(C(=O)NNC(=O)c3ccsc3)noc2C)cs1,-0.025,.
CCOc1ccccc1NC(=O)C(CC(C)C)NC(=O)C1CCCCC1 (configuration not stated),0.17,0.2
CCC1C(=O)N=C(SCC(=O)NC2CCCCC2)NC1=O (configuration not stated),-0.85,.
O=C(c1ccc(Br)s1)N1CCCC1,-0.21,-1.1
N#C/C(=C/c1cn(Cc2ccc(C(=O)O)o2)c2ccccc12)c1ccc(F)cc1,-1.8,-0.55
Cc1ccc(Sc2ncccc2NC(=O)c2ccc(C)cc2)cc1,-0.12,-0.4
Cc1ccc(NCC(=O)n2c3c(c4ccccc42)CCCC3)cc1Cl,0.13,-1.8
O=C1CCC(=O)N1CCC(c1ccccc1)c1ccco1 (configuration not stated),0.39,1.2
CC(C)c1ccc(N=Cc2cc(Br)ccc2O)c(Br)c1,0.4,.
COc1ccc(/C=N/NC(=O)OC(C)(C)C)cc1OC,.,-0.35
O=C(Nc1ccc(Cl)cc1)c1ccccc1SCCC(F)=C(F)F,0,.
CC(=O)Nc1ccc(SCC(=O)c2cc(C)n(-c3nccs3)c2C)cc1,.,0.7
O=C(O)COc1ccc(/C=N/NC(=O)CC2Sc3ccccc3NC2=O)cc1 (configuration not stated),0.45,.
CC(C)NC(=O)Cc1c(O)c2ccccc2[nH]c1=O,1.1,-0.7
CCOC(=O)C1=C(C)NC(=O)NC1c1cc(Br)c(OCc2ccccc2)c(OC)c1 (configuration not stated),-1.2,.
CCCCNc1nc(SCc2cc(=O)n3cc(Cl)ccc3n2)nc2ccccc12,1.4,.
NC(=O)C1CCN(C(=O)c2csc(-c3cnccn3)n2)CC1,-0.51,.
CCc1n[n+](CC(=O)c2ccccc2)c(N)s1,-0.47,-0.9
CN(C)CCNC(=O)c1cc(Sc2ccc(F)cc2)nc2ccccc12,-1.4,-0.1
COc1ccc(C2=NN(S(=O)(=O)c3ccccc3)C(c3ccc(F)cc3)C2)cc1OC (configuration not stated),0.03,.
N#CCCN(Cc1cccnc1)S(=O)(=O)c1cccc(Cl)c1Cl,.,1.5

Screens: PubChem BioAssay, ICCB-Longwood Screening Facility, Harvard Medical School
